ClpP mod – qHTS Assay for Activators of ClpP; ATP-dependent Clp protease proteolytic subunit (Bacillus subtilis (strain 168)), P80244; AID 651965, 2013; purified B. subtilis ClpP, FRET peptide cleavage, 20 min; actives 1.9% (n = 340,000); Potency, µM (highest dose often 57.5 µM), for inactives: at the top dose activity change, negative = active; active = well fitted falling curve with a large enough effect; inconclusive = small, poorly fitted or top-dose-only effect; inactive = no such curve, though single readings can be large or run the other way; also: potency is read from the fitted curve at half-maximal effect; the source files actives as falling curves though it sought activators and does not explain the sign; nearly all actives have a fitted effect of over 65% in size; many hits overshoot -100%
Target sequence (P80244 whole entry, looked up): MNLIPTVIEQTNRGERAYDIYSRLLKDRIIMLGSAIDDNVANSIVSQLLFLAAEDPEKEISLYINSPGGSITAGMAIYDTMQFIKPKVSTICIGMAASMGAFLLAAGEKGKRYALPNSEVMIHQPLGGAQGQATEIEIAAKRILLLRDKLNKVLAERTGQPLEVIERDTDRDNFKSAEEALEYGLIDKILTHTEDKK
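FRET quenching reversal measured ClpP activation: 10 microg/mL B. subtilis ClpP at pH 8 with the FRET-FV decapeptide, read at 430 nm after 320 nm excitation. The 20-min minus 0-min signal was scaled between DMSO/no-enzyme wells and ADEP (5.8 microM final).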
PINK1 expr mod – changes PINK1 expression; PINK1 immunofluorescence, high-content cytometry, 24 h; Potency, µM (titrated, usually from 76.6 µM), for the others: top-dose activation (PINK1 increase), usual class: activators; actives 0.2% (n = 410,000); active = well fitted activation curve with a large enough effect; inconclusive = small, poorly fitted or top-dose-only effect; inactive = flat fitted curve, though single readings scatter; cell line not stated here;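 also: potency is read from the fitted curve at half-maximal effect; % of control where 0% means no effect; nearly all actives have a fitted effect of over 65% in size; a mitochondrial uncoupler was the plate control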
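PINK1 protein level read as immunofluorescence by microplate cytometer in a fixed, stained stable cell line after 24 h exposure to five compound concentrations, with CCCP as control.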
TRPML1 ag – agonists of human TRPML1 channel. TRPML1-expressing cells, Ca2+ dye fluorescence, FDSS; host cell line not named in the record; reference of the full effect not given here. activation, % (concentration not given with the values). AID 624414. Q9GZU1. actives 0.12% (n = 410,000); in the data active = activation above about 50%; inconclusive = about 30% to 50%; inactive = below about 30%; also: 0% is about no effect; the text of the record puts the active cut at 80%
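In this qHTS format, compounds were pin-transferred onto Ca8-dye-loaded TRPML1-DL cells induced with Tet overnight, and intracellular Ca2+ fluorescence was recorded kinetically for 110 s after a 10 s baseline. A subsequent 4uM final 54-4 (EC80) addition followed by a second 110 s read served as the antagonist phase.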
TRPML1 inh – human mucolipin-1 channel inhibition; activity change, negative = inhibition, % (no concentration beside the values); TRPML1-inducible cells, Ca2+ dye fluorescence, FDSS; active compounds read low; inhibition of EC80 agonist-evoked calcium signal; actives 0.02% (n = 390,000); in the data active means activity change below about -50%; inconclusive means about -30% to -50%; inactive means above about -30%;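 also: stimulus is agonist 54-4 at its EC80 concentration; % is scaled to controls: 0 for no effect and ±100 for the full control effect; compound concentration not given in the record; the text of the record puts the active cut at -80%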
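TRPML1-DL cells, Tet-induced overnight (~16 h, 37 °C) at 1,500 cells/well, were loaded with Ca8 no-wash dye plus quencher for 45-90 min at room temperature. Compounds were pinned during FDSS kinetic reading; agonist 54-4 at EC80 (4 uM final) then added.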
TRPV1 PAM – human TRPV1 potentiation | Q8NER1 | TRPV1-expressing cells, Fluo-8 calcium influx, capsaicin EC20 potentiation; host cell line not named in the record; control for the full effect not named in the record | potentiation, % at 8.33 µM | actives 0.02% (n = 320,000) | AID 540277; active means potentiation above 80%; inconclusive means 30% to 80%; inactive means below 30%; also: 0% is about no effect
Target sequence (Q8NER1 whole entry, looked up): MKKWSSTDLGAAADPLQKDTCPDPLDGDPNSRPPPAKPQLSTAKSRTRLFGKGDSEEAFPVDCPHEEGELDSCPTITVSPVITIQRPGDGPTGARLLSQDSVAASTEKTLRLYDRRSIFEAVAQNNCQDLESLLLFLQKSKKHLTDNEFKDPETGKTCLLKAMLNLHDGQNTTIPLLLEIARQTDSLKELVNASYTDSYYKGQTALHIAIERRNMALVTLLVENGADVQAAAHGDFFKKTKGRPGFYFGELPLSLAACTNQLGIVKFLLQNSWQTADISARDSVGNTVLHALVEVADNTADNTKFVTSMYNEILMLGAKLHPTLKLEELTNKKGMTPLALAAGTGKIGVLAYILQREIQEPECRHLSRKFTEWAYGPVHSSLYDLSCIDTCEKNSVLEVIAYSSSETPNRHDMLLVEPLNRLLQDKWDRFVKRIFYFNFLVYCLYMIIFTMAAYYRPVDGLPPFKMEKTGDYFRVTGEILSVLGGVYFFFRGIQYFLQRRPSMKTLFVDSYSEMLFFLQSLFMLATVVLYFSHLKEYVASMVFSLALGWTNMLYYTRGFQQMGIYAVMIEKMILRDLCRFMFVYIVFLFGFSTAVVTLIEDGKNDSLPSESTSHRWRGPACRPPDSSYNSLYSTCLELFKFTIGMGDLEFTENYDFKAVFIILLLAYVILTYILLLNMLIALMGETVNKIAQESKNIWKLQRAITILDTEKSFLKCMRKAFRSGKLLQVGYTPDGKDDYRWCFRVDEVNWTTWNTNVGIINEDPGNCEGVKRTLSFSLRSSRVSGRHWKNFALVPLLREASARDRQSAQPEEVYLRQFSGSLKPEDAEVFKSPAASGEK
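Fluo-8 calcium influx in TRPV1-expressing cells, kinetic read (ex 480/em 520 nm). Compound added and read 3 min for agonist activity, followed by capsaicin at EC20 final and 2 min further read for enhancement.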
Sfp inh – Sfp phosphopantetheinyl transferase inhibition. Q9F4F7. Biochemical Sfp PPTase activity, qHTS. Potency, µM, for inactives: max response, negative = inhibition, hits mostly inhibitors. actives 3.5% (n = 310,000). AID 1490; active = well fitted inhibition curve with a large enough effect; inconclusive = small, poorly fitted or top-dose-only effect, or another doubt; inactive = no such curve, though single readings can be large or run the other way;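 also: the enzyme is Sfp with the accession as filed and its product quenches rhodamine fluorescence; potency is read from the fitted curve at half-maximal effect; 0% = enzyme reaction without inhibitor and -100% = no enzyme wells; top concentration of the series not given in the record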
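Step 1, compound plus 15 nM Sfp-PPTase, 15 min, room temperature. Step 2, add rhodamine-CoA (5 uM) and BHQ-2-YbbR (12.5 uM). Step 3, read 525/598 nm fluorescence at 0 and 30 min.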
Menin-MLL FL inh – displaces fluorescein MLL peptide from human menin; Fluorescence polarization, fluorescein-MLL peptide displacement from menin; FP activity change, % at 61.4 µM; 290,000 tested, under 10 active; inconclusive = falling polarisation curve, or a change in total fluorescence; inactive = total fluorescence flat and polarisation flat or rising; no compound was filed as active; the % refers to the polarisation; negative = inhibition;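 also: % of control where 0% means no effect; inhibitors lower the polarisation; unlabelled MLL peptide was the positive control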
* marks the source's active call; other numbers are inactive results; u = inconclusive; x = no result given; & = joins results of further samples; [ ] = dose if it differs, or a comment.

smiles	Sfp inh	TRPML1 ag	PINK1 expr mod	TRPML1 inh	ClpP mod	TRPV1 PAM	Menin-MLL FL inh
O=C(OCc1cc(Cl)ccc1OC(F)F)c1ccc([N+](=O)[O-])o1	3.7%	x	x	x	x	2.5	-6.2
COc1ccc(OC(C)C(=O)N(C)Cc2nc(-c3ccc(OC)cc3)no2)cc1 (stereo not given)	-1.0%	-1.4	2.2%	2.6	-1.2%	-0.7	-5.8
O=C(NCCc1ccco1)C(=O)NCC1OCCCN1S(=O)(=O)c1cc(F)ccc1F (stereo not given)	4.0%	-0.5	-0.7%	-4.7	-11.2%	12.9	x
CC(C)CCN1NC2(CCC(C)CC2)NC1=S (stereo not given)	79.4µM*	0.2	0.9%	-6.6	2.1%	-17.6	8.2
O=C(Nc1ccccc1C(=O)N1CCCCC1)c1cc(F)c(F)cc1Cl	1.6%	0.0	0.6%	-13.0	-2.1%	16.8	x
C[C@H](O)[C@@H]1CN2CCc3c([nH]c4ccccc34)[C@@H]2C[C@@H]1N(C)C(=O)Nc1ccc(F)cc1	x	0.4	3.7%	-19.9	-20.6%	x	x
COCCn1c(=NC(=O)C(C)(C)C)sc2cc([N+](=O)[O-])ccc21	14.5%	-0.6	7.2%	-19.8	0.7%	-6.0	2.1
CCOc1ccc2nc(NCCO)[nH]c2c1	14.2%	-0.8	0.8%	0.3	1.0%	-10.7	3.8
Cc1ccnc(NC(=O)CNC(=O)c2sc3ccccc3c2Cl)c1	x	0.3	15.6%	-3.7	-5.7%	0.8	x
COc1ccc(OC)c(NC(=O)c2ccc3c(Cl)c4c(nc3c2)CCCC4)c1	x	-0.4	10.6%	-10.4	0.4%	x	x
Cc1ccc(NC(=O)CNS(=O)(=O)c2ccc(F)cc2)cc1C	21.8%	0.6	-0.5%	-3.1	0.1%	-7.2	-0.5
COc1cccc(NC(=O)CCS(=O)(=O)c2ccc3c(c2)oc(=O)n3C)c1	14.7%	0.2&-0.5	-0.1%&2.6%	15.9&34.4	-1.5%	4.9	x

Next results
smiles	Sfp inh	TRPML1 ag	PINK1 expr mod	TRPML1 inh	ClpP mod	TRPV1 PAM	Menin-MLL FL inh
N=C1/C(=C\c2ccc(-c3ccc(C(=O)O)cc3)o2)C(=O)N=C2SC=C(c3ccccc3)N12	31.6µM*	3.4	-0.3%	9.8	-14.0%	u	u
CCc1ccc2nc3nc(C)cc(C)c3c(N)c2c1	3.6%	-0.2	x	-0.4	11.2µM*	-7.8	1.4
O=C(NN=C1c2ccccc2-c2ccccc21)c1ccccc1	u	1.0	2.8%	0.4	-2.7%	5.7	u
c1csc(C2=Nn3c(nnc3-c3ccncc3)SC2)c1	u	-0.9	-2.0%	-11.7	0.6%	-9.9	14.7
CC(/C=N\NC(=O)c1ccc(C)nc1)=C\c1ccccc1	9.8%	-0.3	1.7%	-5.9	-7.3%	-6.8	0.1
Cc1nc(-c2cccc(F)c2)sc1CCNC(=O)c1ccc(F)c(F)c1	x	2.5	0.6%	1.7	3.8%	x	x
CCc1ccc(CN2CCCC(CNC(=O)c3cc(OC)cc(OC)c3)C2)cc1 (stereo not given)	12.0%	-0.3	2.2%	-13.1	-1.2%	-11.3	-6.8
Cc1csc(=Nc2ccccc2)n1C	-8.3%	0.2	-2.2%	-1.7	x	-6.1	0.4
Cc1ccc2[nH]c3c(=O)n(CC(=O)NCCCN4CCN(c5ccc(F)cc5)CC4)ncc3c2c1	10.7%	-0.6&3.4	0.1%&1.2%	6.8&9.7	-18.4%&-11.9%	-4.2	-3.1
O=C(CNC(=S)NC(=O)c1ccc(Cl)cc1)c1ccccc1	-2.3%	1.0	8.1%	-16.0	28.2µM*	6.9	-2.4
C=CCOc1ccc(/C=N/NC(=O)CC(=O)NC2CCCCC2)cc1	1.6%	1.1	-1.4%	1.5	x	-4.6	5.8
Cc1cccc(C)c1OCC(=O)Nc1ccccc1N1CCCCC1	-6.0%	0.3	u	9.1	-1.4%	10.0	x

Next records
smiles	Sfp inh	TRPML1 ag	PINK1 expr mod	TRPML1 inh	ClpP mod	TRPV1 PAM	Menin-MLL FL inh
CCc1cccc2c(C(=O)CN3C(=O)C(=O)N(C4CCCC4)C3=O)c[nH]c12	x	5.4	2.8%	-4.1	1.6%	5.4	x
CC(C)(C)C(=O)N1CCC(O)(CS(=O)(=O)Cc2ccccc2)CC1	14.2%	-0.1	0.4%	17.4	x	-19.2	-0.6
CCCCSc1nnc(-c2cc3c(C(F)(F)F)nn(C)c3s2)n1C	13.6%	0.5	0.8%	-9.1	-1.7%	x	0.3
Cc1ccc(Cc2c(-c3ccco3)nc3ccc(C)cn23)cc1	x	0.9	2.1%	-3.0	4.4%	x	x
COc1ccc(C2NC(=O)c3c(sc4c3CCN(C)C4)N2)cc1O (stereo not given)	x	0.9	1.8%	-13.0	u	x	x
CCCc1n(CC(O)COC2CCCCC2)c2ccccc2[n+]1C (stereo not given)	2.6%	0.0	0.9%	11.3	-1.0%	7.5	-1.8
CCOC(=O)c1ccc(-c2ccc(N3C(c4cccc(OC)c4)=Cc4ccc(F)cc4C3CC(C)=O)cc2)cc1F (stereo not given)	x	0.3	-0.2%	x	10.6%	x	x
COc1ccc(OC)c(S(=O)(=O)Nc2cc3c4c(c2)C(C)C(=O)N4CCC3)c1 (stereo not given)	x	-0.3	-1.1%	-9.3	-20.7%	14.9	x
CCC(C)Sc1nnc(NC(=O)C2CCN(C(=O)c3ccco3)CC2)s1 (stereo not given)	10.8%	1.0	0.8%	46.3	x	-6.1	1.6
Cc1ccc2nc(Cl)c(C3CC(c4cccs4)=NN3C(=O)CCC(=O)O)cc2c1 (stereo not given)	8.1%	0.1	-0.6%	10.2	x	19.4	0.7
CCc1ccc(-c2nc(CS(=O)CC(=O)NC3CC3)c(C)o2)cc1 (stereo not given)	-2.7%	0.1	-2.4%	-15.8	-10.2%	-13.9	2.3
Cc1ccc(CNC(=O)c2nnn(Cc3ccc(F)cc3)c2N)cc1	x	-0.6	3.1%	-12.1	-1.3%	x	x

Later entries.
smiles	Sfp inh	TRPML1 ag	PINK1 expr mod	TRPML1 inh	ClpP mod	TRPV1 PAM	Menin-MLL FL inh
CNC(=O)C1C2C=CC3(O2)C1C(=O)N(CCOC)C3C(=O)NCc1ccc(OC)cc1 (stereo not given)	-4.3%	0.1	0.7%	3.2	0.5%	12.3	-0.8
CCOC(=O)c1[nH]c2ccccc2c1NC(=O)C1CCCCC1	-9.1%	0.1	x	-11.0	u	u	-0.6
O=c1c(OC2OC(CO)C(O)C(O)C2OC2OC(CO)C(O)C(O)C2O)c(-c2ccc(O)cc2)oc2cc(O)cc(O)c12 (stereo not given)	-2.0%	x	1.2%	x	-0.2%	8.2	0.4
CCC(=O)c1ccc(OCC(=O)OCC(=O)N(C)CC(=O)Nc2ccc(F)cc2)cc1	x	-1.2	0.1%	-2.2	-1.2%	-3.9	x
CCCN(c1ccc(OCC)cc1)S(=O)(=O)c1ccc2c(c1)CCN2C(=O)CCC(=O)O	-2.0%	0.5	2.2%[38.3 µM]	-10.4	-2.4%	-10.5	9.0
Cc1ccc(CC(=O)Nc2cccc(S(=O)(=O)N3CCOCC3)c2)cc1	4.1%	0.2	1.5%	2.2	0.2%	-15.7	x
CCc1cccc(NC(=O)COC(=O)c2cn(CC)c3nc(C)ccc3c2=O)c1	x	-1.1	-0.9%	-11.7	-1.1%	x	x
O=C(NCCc1ccc(Cl)cc1)c1cnccn1	6.9%	-0.2	2.7%	0.1	-0.2%	-19.9	-1.9
O=C(NCC1CCCO1)C1CCN(C(=O)c2ccc(Cl)cc2)CC1 (stereo not given)	17.4%	-0.1	-0.8%	-5.9	-0.7%	x	3.0
NS(=O)(=O)c1ccc(CNS(=O)(=O)c2cc(C(=O)O)ccc2Cl)cc1	28.0%	2.0	-0.5%	-13.7	-1.8%	21.3	1.9
COc1cccc(N2CCN(C(=O)c3ccc(CSc4nc5ccncc5[nH]4)cc3)CC2)c1	4.6%	1.2	0.1%	-7.2	1.7%	-7.4	3.9
CCCCOC(=O)c1ccc(NC(=S)NC(=O)c2c(Cl)cnn2C)cc1	79.4µM*	0.1	2.0%	-9.6	-0.1%	9.2	4.6

Additional entries
smiles	Sfp inh	TRPML1 ag	PINK1 expr mod	TRPML1 inh	ClpP mod	TRPV1 PAM	Menin-MLL FL inh
CC(C)(C)n1cnc(C(N)=O)c1N	4.0%	1.6	3.7%	-5.7	x	8.3	5.1
CN=C(C)c1c(O)c2ccccc2oc1=O	13.7%	0.5	9.1%[38.3 µM]	-0.5	1.3%	-14.2	7.3
CC(=O)NC(c1ccccc1)c1nc(-c2cccc(C#N)c2)cs1 (stereo not given)	x	-0.7	-0.2%	x	-3.0%	x	x
COc1cc2oc(=O)ccc2cc1[C@H](O)[C@@H](O)C(C)(C)O	x	-0.1	-0.6%	-15.5	5.0%	1.1	x
CCN(CC)C(=O)Cn1c(=O)n(-c2ccc(OC)cc2OC)c(=O)c2c(C)c(C(=O)N(CC)CC)sc21	x	-0.1	1.3%	-24.5	0.7%	x	x
O=C(C1=C[C@H](C2CC2)C[C@H](OCc2ccc(CO)cc2)O1)N1CCN(Cc2ccccc2)CC1	15.3%	0.3	-0.7%	-17.2	-2.3%	18.0	-1.5
COc1ccc(/C=N/Nc2ccc(C(F)(F)F)cc2[N+](=O)[O-])cc1	8.1%	0.8	1.9%	2.3	-1.4%	2.4	3.9
COC(=O)c1cc(COC(=O)c2nc3nc(C)cc(C)n3n2)oc1C	-25.7%	1.5	-1.3%	19.7	-3.4%	-5.0	-5.4
O=C(Nc1ccc(Cl)c(C(F)(F)F)c1)C1CCCN(S(=O)(=O)c2cccc3cccnc23)C1 (stereo not given)	x	1.8	1.1%	25.2	-0.9%	x	x
CCc1cc(=O)oc2cc(C)cc(OC(C)C(=O)NCCN3CCOCC3)c12 (stereo not given)	2.8%	-0.2	-0.1%	35.1	x	0.0	x
COC(=O)c1ccccc1NC(=O)CSc1nnc(Cc2ccc(Cl)cc2)o1	-18.5%	2.4	-2.3%	-4.6	0.0%	1.3	1.1
COc1ccc(CCC(=O)Nc2cnc3ccccc3c2)cc1	14.5%	-0.6	2.1%	12.1	x	u	-0.6
Cc1ccc(-n2cc3c(=O)n(C)c(=O)n(C)c3c2)cc1C	-21.4%	0.6	-1.2%	-9.7	-3.8%	4.9	0.3

Screens from PubChem.
